H5N1 antiviral: MDCK cell protection from H5N1 avian flu; cytopathic effect, luminescence, 72 h; stronger effect = higher value; no value below 0 was filed and about half of the inactive calls have no number; reference of the scale not given here; inhibition, % at 50 µM; 96,000 compounds, 0.07% hits; AID 740, 2007; in the data active = inhibition above about 25%
An asterisk follows results filed as active; i = inactive.

SMILES	H5N1 antiviral
O=C(Cn1c(=O)n(Cc2ccco2)c(=O)c2c3c(sc21)CCCCC3)Nc1ccccc1	i
O=C(NCc1ccc(Cl)cc1)c1cccnc1	0.7
Cc1cnc(N)c2c(=O)oc3ccccc3c12	2.9
COc1ccc(CC(NC(C)=O)C(=O)NC2CCN(C(=O)c3cnccn3)CC2)cc1 (configuration not stated)	i
N#CC(c1cccc(Cl)c1)c1ccc2c(C(F)(F)F)cc(C(F)(F)F)nc2n1 (configuration not stated)	i
O=C(NCCCc1ccccc1)c1cnc2n(c1=O)CCS2	i
CC(C)OC(=O)CCCCCN1C(=O)CSC1=S	i
CN(C)C(=O)N1CCCC(C(=O)NCc2cccs2)C1 (configuration not stated)	0.1
Cc1ccccc1-n1c(SCC(=O)N2CCCC2)nnc1-c1ccccn1	0.1
N/C(=N\OC(=O)/C=C/c1ccccc1)c1ccccc1	0.8
Cc1cccc(N2CCN(c3nc4ccccc4n4cnnc34)CC2)c1C	i
COc1ccc(N2CCN(C(=O)CSc3nnc(COc4cccc5cccnc45)o3)CC2)cc1	0.4
CCCCSc1nc(C)nc2c1c(=O)n(C)c(=O)n2C	2.5
C/C(=C\C(=O)c1ccc(Br)cc1)NCc1ccc2c(c1)OCO2	1.4
CS/C(=C\[N+](=O)[O-])Nc1ccc(Cl)cc1	0.2
CCOC(=O)C(C)Sc1ncc(-c2ccc(Cl)cc2)cn1 (configuration not stated)	i
Cc1ccccc1-c1nc(CN2CCC(C(=O)NCc3cccs3)CC2)c(C)o1	i
COc1ccc(N(CC(=O)NC2CCCCCCC2)S(=O)(=O)c2c(C)nn(C)c2C)cc1	0.7
Cc1nc2cc(NC(=O)N(C)c3ccc4ccccc4c3)ccc2o1	i
CCOc1ccccc1NC(=O)Cn1nnc(-c2ccc(OCC)c(OCC)c2)n1	i
COc1cccc(C(=O)Nc2cc(C(F)(F)F)ccc2Cl)c1	i
CCCCCCn1c(CN2CCCCC2CC)nc2c1c(=O)n(C)c(=O)n2C (configuration not stated)	6.4
O=C(COc1ccc(S(=O)(=O)N2CCOCC2)cc1)NC1CCCC1	1.5
Cc1cc(C)n(Cc2ccccc2)c(=O)c1S(=O)(=O)c1ccccc1	i
CCOc1ccc(Cl)cc1CN1CCOCC1	0.2
O=C(Nc1nc2ccccc2n1Cc1ccccc1)c1ccco1	3.7
CCOC(=O)c1c(NC(=O)CC2SC(=NC)N(C)C2=O)sc(C)c1C (configuration not stated)	i
O=C(CCc1ccc(S(=O)(=O)NC2CCCCC2)cc1)N(Cc1ccccc1)Cc1ccccc1	i
CCOC(=O)c1cc2sccc2n1CC(=O)Nc1ccc(OC)cc1	i
c1cncc(-c2nnc3sc(C4CCCCC4)nn23)c1	2.3
CCOC(=O)N1CCN(C(=O)C2CCN(S(=O)(=O)CC)CC2)CC1	i
COc1cc(C(=O)N2CCN(C(=O)c3ccccc3)CC2)cc(OC)c1OC	0.3
CCOc1ccccc1N(CC(=O)Nc1ccc2c(c1)OCCO2)S(C)(=O)=O	1.3
C/C(N)=C(/C#N)C(=O)CSc1nc2ccccc2[nH]1	i
CCCCn1c(SCC(=O)N2CC(C)CC(C)C2)nc2cc(S(N)(=O)=O)ccc21 (configuration not stated)	i
CSc1nc(Sc2ccccc2)c2ccccc2n1	i
CCOc1ccc(OCCSc2nc(C)cc(=O)[nH]2)cc1	0.3
Cc1cc(Br)c2[nH]c3c(c2c1)CCCC3=O	0.6
COc1cc(C(=O)Nc2cc(-c3nc4cc(C)ccc4o3)ccc2C)cc(OC)c1OC	0.2
CCOc1ccc2c(C)cc(=O)oc2c1OCC	1.8
Cc1c(C#N)c(N=CN(C)C)c(C(=O)c2ccc(Br)cc2)n1-c1ccccc1	1.7
COc1ccc(CC(=O)Nc2ccc(S(=O)(=O)Nc3cc(C)on3)cc2)cc1OC	0.7
O=C(CN1CCN(CC(=O)Nc2ccccc2C(F)(F)F)CC1)Nc1ccccc1F	i
CC(C)n1cnc2cc(NCc3ccccn3)ccc21	1.8
CCn1c(COc2ccc(C)cc2)nnc1SCC(=O)Nc1ccc2c(c1)OCCO2	i
Cc1ccccc1-c1noc(-c2cccs2)n1	i
CC(=O)c1ccc(N2CCN(S(=O)(=O)c3cccc(S(=O)(=O)N4CCOCC4)c3)CC2)cc1	0.5
Cc1ccc(C(c2nnnn2Cc2ccccc2)N2CC=C(c3ccc(F)cc3)CC2)cc1 (configuration not stated)	0.3
CC(SC1=NCCS1)C(=O)Nc1nnc(-c2ccc(Br)cc2)s1 (configuration not stated)	1.3
N#Cc1c(Sc2ncc(C(F)(F)F)cc2Cl)nsc1C/C=N\OCc1ccccc1Br	i
CCOC(=O)COc1ccsc1C(=O)OC	1.7
O=C(O)CC(C(=O)OC1CCCCC1)N1CCOCC1 (configuration not stated)	i
CCOC(=O)C(NC(=O)c1ccccc1)(N1CCOCC1)C(F)(F)F (configuration not stated)	2.8
N/C(=N\OC(=O)c1ccccc1Cl)c1ccc(Cl)cc1	i
Cc1ccc(Nc2nc(N)nc(CN3CCN(C(=O)c4ccco4)CC3)n2)cc1Cl	i
C=CCn1c(O)c(C(C)=NCCCO)c(=O)[nH]c1=O	0.7
CC(C)(C)n1nnnc1C(c1ccc(C(F)(F)F)cc1)N(Cc1ccccc1)Cc1ccco1 (configuration not stated)	2.4
CCOC(=O)C(C)Sc1nc(-c2cccs2)ccc1C#N (configuration not stated)	i
O=S(=O)(NC1c2cccc3cccc(c23)C1N1CCN(CCO)CC1)c1ccccc1 (configuration not stated)	14
CCNC(=O)COC(=O)c1cc(=O)[nH]c2ccccc12	i
New compounds follow:
SMILES	H5N1 antiviral
CCOC(=O)N1CCC(Nc2cc(C)nc3c(-c4ccccc4OC)c(C)nn23)CC1	2.1
O=C(c1ccc2c(c1)OCO2)N1CCN=C1SCc1ccccc1	4.6
O=C(CCN1C(=O)c2ccccc2C1=O)Nc1cccc(F)c1	i
CCOC(=O)CSC1=C(C#N)C(c2ccccc2OCC)C(C(=O)OCC)C(=O)N1 (configuration not stated)	1.0
COc1ccc(-c2nc(C)ncc2-c2csc(C)n2)c(O)c1	i
COc1ccc(CNC(=O)c2cnc(C)cn2)c(OC)c1	0.2
O=C(NCc1ccc2c(c1)OCO2)c1cnc2ccccn2c1=O	i
O=C(NCCNC(=O)C(c1ccccc1)c1ccccc1)c1ccco1	0.8
N#CC1=C(N)SC(N)=C(C#N)C1c1ccc(C(F)(F)F)cc1	0.7
CN(CCCCCCCCC(=O)/C=N/O)Cc1ccccc1	i
Cc1cccc(OCCCC(=O)Nc2ccc(Br)cc2)c1	i
Cn1c(=O)c2c(nc(Cl)n2Cc2ccncc2)n(C)c1=O	0.8
C=C(C)Cn1c(COc2ccccc2)nnc1SCC(=O)O	i
Cc1ccccc1Nc1ncccc1C(=O)N1CCOCC1	1.8
CCSc1ccccc1C(=O)NCCCn1ccnc1	i
Cc1cc(C)c(C#N)c(OCC(=O)c2ccccc2)n1	1.1
CCN(CC)C(=O)C1=C(C)NC(=O)NC1c1ccccc1F (configuration not stated)	i
CCCC(C(=O)NC1CCCCC1)N(CC1CCCO1)C(=O)CNS(=O)(=O)c1ccc(F)cc1 (configuration not stated)	i
Cc1cccc2cc(CN(Cc3nnnn3Cc3ccco3)C3CCCC3)c3nnnn3c12	1.4
CN(Cc1ccccc1)S(=O)(=O)c1ccc2c(c1)n(C)c(=O)n2C	0.5
COc1ccccc1OCc1ccc(C(=O)N2CCN3CCCC3C2)cc1 (configuration not stated)	i
COc1ccc(/C=N/N=C/c2ccc(OC)c(OC)c2)cc1OC	i
COc1ccc(Cl)cc1S(=O)(=O)NCc1cccnc1	1.3
CC(C)Cn1c(SCC(=O)c2c(N)n(C)c(=O)n(C)c2=O)nc2ccccc21	0.5
O=C(CNC(=O)c1ccccc1)Nc1ccc(Br)cc1C(=O)c1ccccc1	0.2
CC(=O)OC1N=C(c2ccccc2)c2cc(Br)ccc2N(C)C1=O (configuration not stated)	i
CCOc1ccc2sc(NS(=O)(=O)c3ccc(OC)c(OC)c3)nc2c1	0.9
COc1ccc(-c2cc(C(F)F)n3ncc(C(=O)NCCCN4CCCC4=O)c3n2)cc1	0.7
COc1ccc(NC(=O)c2ccc(-n3nc(C)cc3C)cc2)cc1OC	0.4
CCN(c1ccccc1)S(=O)(=O)c1ccc(N)cc1	i
Cc1cnc(C(=O)OCC(=O)NCc2ccccc2)cn1	0.1
COc1ccc(C(=O)Nc2ccc(F)cc2F)cc1	0.6
O=C(COc1ccc(Cl)cc1Cl)NNC(=S)Nc1ccc(F)cc1	0.3
COc1cc(NC(=O)C2CCCN(S(=O)(=O)c3cccc4nsnc34)C2)cc(OC)c1 (configuration not stated)	i
OC(c1ccc(Cl)cc1)c1nnc(-c2ccccc2)o1 (configuration not stated)	1.0
COc1ccc(C(=O)NC(=S)NNC(=O)CCc2ccccc2)cc1	2.5
COc1ccc(-c2c(C#N)c(N)nc3c2CCc2ccccc2-3)cc1OC	i
Cc1ccc2cc(C#N)c(NCCCNC(=O)C3CCCO3)nc2c1 (configuration not stated)	2.0
CCCCOC(=O)c1ccc(NC(=O)c2cc(Cl)ccc2OC)cc1	i
O=Cc1cccn1Cc1ccc(Cl)cc1Cl	i
Oc1ccc(Br)cc1CN1CCCCCCC1	3.4
Cc1ccnc(NS(=O)(=O)c2ccc(NC(=O)C3CCCO3)cc2)n1 (configuration not stated)	0.2
CCc1nc(NCC2CCCO2)c(C#N)c2c1COC(C)(C)C2 (configuration not stated)	2.0
CCCn1c2c(c(O)c(C(=O)Nc3nc(C)cs3)c1=O)CCCC2	0.3
C1CCc2c(nnc3c2-c2nonc2CC3)C1	0.4
N#CCc1c(C#N)c(N)nc(N2CCN(Cc3ccc4c(c3)OCO4)CC2)c1C#N	0.2
O=C(NCc1cccnc1)C1CC(=O)N(CCc2ccccc2)C1 (configuration not stated)	2.6
CCCCCc1cc(O)c2c(C)cc(=O)oc2c1	i
CCOc1ccc(NC(=O)N(CCN(C)C)C(C)c2ccncc2)cc1 (configuration not stated)	i
CS(=O)(=O)c1ccc2nc(NC(NC(=O)c3ccco3)(C(F)(F)F)C(F)(F)F)sc2c1	0.6
COc1ccccc1OCCC(=O)OCC(=O)NC(=O)NC(C)(C)C	i
CCCOc1nc(N)c(C#N)c(-c2ccccc2F)c1C#N	i
Cc1[nH]c2ccccc2c1CCO	i
CCCCCN(C(=O)NC(=O)Nc1nncs1)S(C)(=O)=O	i
CCN(CC)CCNC(=O)c1ccc2c(=O)n(C3CCCC3)c(=S)[nH]c2c1	i
CCCC(C)C(=O)Nc1nnc(C)s1 (configuration not stated)	i
CCN(CC)CCNC(=O)C1CCN(S(=O)(=O)N2CCCCC2)CC1	i
COc1ccc(-c2csc(NCc3ccco3)n2)cc1	i
O=C(Nc1ccccc1C(=O)NCc1ccccc1)c1ccccc1	i
CCCCC(=O)N(CCOC)c1nnc(-c2ccc(OC)cc2)s1	i
Remaining list, next part
SMILES	H5N1 antiviral
O=C(CSCc1ccc(Cl)cc1)Nc1cccc(C(=O)Nc2ccccc2C(=O)O)c1	0.1
Cc1nc2ccccc2c(=O)n1/N=C/c1ccncc1	1.6
Cc1ccc(C(=O)Nc2ccccc2N2CCN(C(=O)C(C)C)CC2)cc1	i
FC(F)(F)c1cccc(N2Cc3ccccc3C2)c1	i
O=C(O)CN1C(=O)CSc2ccccc21	i
CCOc1nc(-c2ccc(C)cc2)ccc1-c1noc(COC)n1	i
Cc1ccc(NS(=O)(=O)c2c(C)[nH]c(=O)[nH]c2=O)cc1C	0.1
COC(=O)C(Cc1cnc[nH]1)NC(=O)C1CCC(=O)N1 (configuration not stated)	i
COc1ccccc1OCC(=O)N(Cc1nc(-c2ccc(Cl)cc2)no1)C(C)C	0.9
O=[N+]([O-])C1=CC=C2C(=NC3(CCCCC3)N2O)C1=NCCO	i
CC(C)NS(=O)(=O)c1ccc(OCC(=O)Nc2ccc3c(c2)OCCO3)cc1	i
N#Cc1ccc(-c2ccc(F)cc2)nc1Oc1ccc(Cl)c(Cl)c1	0.5
CC1=[N+]([O-])C(N2CCOCC2)C(O)(c2ccccc2)C1 (configuration not stated)	i
Cc1ccc(CNC(=O)CCOc2ccc(C(C)(C)C)cc2)cc1	1.8
COc1cc2c(cc1OC)CN(C(=O)CSc1nc(N)c(C#N)cc1C#N)CC2	1.1
COc1ccc(N(CC(=O)NC2CCCC2)S(=O)(=O)c2c(C)[nH]c(=O)[nH]c2=O)cc1	0.3
COCCSc1ccccc1C(=O)NCc1ccc2c(c1)OCO2	0.8
COc1ccc(-c2noc(CCCC(=O)NCCc3ccccc3)n2)cc1OC	0.2
C=C(C)Cn1c(CCNC(=O)CC)nc2ccccc21	i
CCc1ccc2[nH]cc(C(=O)OCCOC)c(=O)c2c1	0.4
CC(C)Cn1c(N)c(S(=O)(=O)c2cccs2)c2nc3ccccc3nc21	2.1

Screening data: PubChem BioAssay, SRMLSC

This is a subset; the hit share may differ from the screen's.
